Screening data deposited in PubChem BioAssay by Broad Institute.
AF4-AF9 inh – inhibitors of AF4 peptide binding to AF9, primary screen, biochemical, AlphaScreen, biotin-AF4 peptide, FLAG-AF9, single point | AID 651704, 2012 | inhibition, % at 10 µM | actives 0.47% (n = 350,000);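 active = every replicate reaching a set inhibition limit, whatever the replicate mean, cut at about 25% in these data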;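 note: 0% = plate neutral control median and 100% = total signal loss; the record names both 10 and 1 µM as test concentration; the first replicate is given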
Target sequence (P42568 whole entry, looked up): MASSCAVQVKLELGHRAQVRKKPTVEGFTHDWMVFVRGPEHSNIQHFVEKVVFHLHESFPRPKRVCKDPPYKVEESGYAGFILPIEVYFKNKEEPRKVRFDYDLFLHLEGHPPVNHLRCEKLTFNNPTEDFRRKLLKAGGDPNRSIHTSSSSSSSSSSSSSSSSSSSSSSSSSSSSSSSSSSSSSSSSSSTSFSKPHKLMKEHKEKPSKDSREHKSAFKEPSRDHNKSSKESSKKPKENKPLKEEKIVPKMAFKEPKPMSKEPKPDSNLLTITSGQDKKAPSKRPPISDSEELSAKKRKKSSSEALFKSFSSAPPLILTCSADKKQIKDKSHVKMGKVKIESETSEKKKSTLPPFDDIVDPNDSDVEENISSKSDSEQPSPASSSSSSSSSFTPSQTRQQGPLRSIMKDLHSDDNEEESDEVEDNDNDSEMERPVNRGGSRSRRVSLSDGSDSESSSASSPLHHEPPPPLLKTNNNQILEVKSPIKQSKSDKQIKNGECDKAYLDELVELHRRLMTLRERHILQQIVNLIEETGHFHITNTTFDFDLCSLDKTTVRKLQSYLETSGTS
rRNA inh HTS – reduced GFP signal of wild-type E. coli, primary screen, bacterial rRNA inhibitor project, GFP/RFP fluorescence, OD600, single point; actives 1.6% (n = 350,000); E. coli WT GFP vs humanized-ribosome RFP mutants, 24 h; hits give low values; DMSO median 0, no signal -100; GFP signal change (wild-type ribosome), % (no concentration beside the values);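 active = significant combined selectivity score with lowered wild-type GFP, culture density cut under 30%, mutant RFP and density less affected; inactive = any of these conditions unmet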; note: one replicate is shown; some compounds called inactive have numbers as strong as hits
rRNA inh HTS OD600 – second read-out of rRNA inh HTS, no call of its own (marks repeat the call); OD600 change, %; measured here: OD600 growth;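 optical density of the mix in the first replicate; 0 = DMSO median and -100 = no signal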
rRNA inh HTS RFP – second read-out of rRNA inh HTS, no call of its own (marks repeat the call); RFP signal change, %; measured here: RFP humanized mutant strains;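 first replicate; 0 = DMSO median and -100 = no signal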
* = called active by the depositor. The list is partial (hit frequency here may not be typical).

Structure	AF4-AF9 inh	rRNA inh HTS	rRNA inh HTS OD600	rRNA inh HTS RFP
C[C@H]1CN([C@@H](C)CO)C(=O)c2cc(NC(=O)CCN3CCOCC3)ccc2O[C@@H]1CN(C)Cc1ccc(-c2ccccc2)cc1	9.3	-1	-1	1.8
O=C1CN(S(=O)(=O)c2cccc(F)c2)C[C@@H]2[C@@H](c3ccc(-c4ccc(F)cc4)cc3)[C@@H](CO)N12	-2.2	2	5	4.2
C[C@H]1CN([C@@H](C)CO)C(=O)Cc2cc(NS(=O)(=O)c3cccs3)ccc2O[C@@H]1CN(C)C(=O)Nc1ccc(F)cc1	-0.3	3	4	0.8
O=c1c(-c2ccccc2)nc2ccccc2n1C(c1ccccn1)c1nc2ccccc2[nH]1 (configuration not stated)	11	-2	11	-1.9
COc1ccc(NC(=O)N(C)C[C@@H]2OCCCC[C@H](C)Oc3ccc(NS(C)(=O)=O)cc3C(=O)N([C@@H](C)CO)C[C@@H]2C)cc1	-3.0	1	3	0.3
COc1cccc(NC(=O)N(C)C[C@@H]2Oc3cc(C#Cc4ccncc4)ccc3S(=O)(=O)N([C@@H](C)CO)C[C@@H]2C)c1	-0.3	-8	-12	4.0
C[C@H]1CN([C@@H](C)CO)C(=O)c2cc(-c3ccncc3)cnc2O[C@@H]1CN(C)C(=O)c1ccc(F)cc1	-2.4	-1	-2	-2.8
COc1cccc(NC(=O)N2CC(=O)N3[C@H](CO)[C@@H](c4ccc(C#CC5CCCCC5)cc4)[C@@H]3C2)c1	5.0	3	10	-2.6
C[C@@H]1CN([C@@H](C)CO)C(=O)c2cccc(NC(=O)c3ccncc3)c2O[C@H]1CN(C)CC1CC1	-3.0	1	5	0.9
O=C(CC[C@H]1O[C@@H](n2ccc(=O)[nH]c2=O)[C@H](O)[C@@H]1O)N[C@H](Cc1ccccc1)C(=O)NCc1ccc2c(c1)OCO2	-2.5	4	8	-1.4
C[C@@H]1CN([C@@H](C)CO)S(=O)(=O)c2ccc(C#Cc3cccc(F)c3)cc2O[C@@H]1CN(C)C	6.9	4	-4	-2.1
C[C@@H](NC(=O)C[C@@H]1CC[C@@H]2[C@H](COC[C@H](O)CN2Cc2cc(F)ccc2F)O1)c1ccccc1	-0.6	-12	-15	-0.1

Single records, as listed above. Order of values: AF4-AF9 inh	rRNA inh HTS	rRNA inh HTS OD600	rRNA inh HTS RFP
`C[C@@H](NC(=O)C[C@@H]1CC[C@@H]2[C@H](COC[C@H](O)CN2Cc2cc(F)ccc2F)O1)c1ccccc1` across the screens: -0.6	-12	-15	-0.1
`O=C1CN(S(=O)(=O)c2cccc(F)c2)C[C@@H]2[C@@H](c3ccc(-c4ccc(F)cc4)cc3)[C@@H](CO)N12` across the screens: -2.2	2	5	4.2

The list continues.
Structure	AF4-AF9 inh	rRNA inh HTS	rRNA inh HTS OD600	rRNA inh HTS RFP
C[C@@H]1CN([C@@H](C)CO)C(=O)c2cccc(NC(=O)c3nc4ccccc4s3)c2O[C@@H]1CN(C)C(=O)Nc1cccc2ccccc12	1.9	-2	-5	1.7
C[C@H]1CN([C@@H](C)CO)C(=O)c2cc(NC(=O)CCC(F)(F)F)ccc2O[C@H]1CN(C)C(=O)Nc1ccc2c(c1)OCO2	-2.4	4	4	1.1
COc1ccccc1CN1[C@@H](CO)[C@@H]2c3ccccc3N(C(=O)C3CCOCC3)C[C@@H]21	-2.0	5	12	0.1
CC(C)NC(=O)Nc1ccc2c(c1)C(=O)N([C@H](C)CO)C[C@H](C)[C@@H](CN(C)Cc1ccncc1)OCCCC[C@@H](C)O2	0.7	-2	6	-1.4
COc1cccc(NC(=O)C[C@@H]2CC[C@H]3[C@H](COc4ccc(NC(C)=O)cc4C(=O)N3C)O2)c1	2.1	-2	1	-1.3
O=C(Nc1ccccc1F)N1CCCCN2[C@@H](CO)[C@H](c3ccc(C4=CCCC4)cc3)[C@@H]2C1	-4.3	-48	-68	-5.7
COc1ccc2c3c([nH]c2c1)[C@H](CO)N(C)CC31CN(S(=O)(=O)c2ccc(C)cc2)C1	2.9	-14	-38	-1.8
CO[C@H]1CN(C)C(=O)c2ccc(NC(=O)NC(C)C)cc2OC[C@@H](C)N(C(=O)CN(C)C)C[C@@H]1C	-0.3	1	6	-1.0
C[C@@H]1CN([C@H](C)CO)C(=O)CCCn2cc(nn2)CO[C@@H]1CN(C)S(=O)(=O)c1cccc(F)c1	0.7	-3	-2	1.9
C[C@H]1CCCCO[C@H](CN(C)C(=O)NC2CCCCC2)[C@@H](C)CN([C@@H](C)CO)C(=O)c2cc(NS(=O)(=O)c3cn(C)cn3)ccc2O1	-0.5	-3	-1	0.0
CN1C(=O)c2cc(NS(=O)(=O)c3cccc(F)c3)ccc2OC[C@H]2O[C@H](CC(=O)O)CC[C@@H]21	-2.5	2	-5	-2.1
COc1ccc2c3c([nH]c2c1)[C@@H](CO)N(C(=O)CN1CCOCC1)CC31CN(CC2CCCC2)C1	6.9	3	5	2.1

The list continues.
Structure	AF4-AF9 inh	rRNA inh HTS	rRNA inh HTS OD600	rRNA inh HTS RFP
COc1ccccc1C#Cc1cnc2c(c1)C(=O)N([C@@H](C)CO)C[C@@H](C)[C@H](CN(C)C(C)=O)O2	-0.4	0	1	-3.4
COc1ccc2c3c(n(C)c2c1)[C@H](CO)N(C(=O)Nc1ccc(F)cc1)CC31CCN(S(=O)(=O)c2cn(C)cn2)CC1	7.9	2	-3	3.3
O=C(c1ccncc1)N1CC(=O)N2[C@H](C1)[C@H](c1ccc(/C=C/c3ccccc3)cc1)[C@@H]2CO	8.3	-5	-5	6.2
C[C@@H]1CN([C@@H](C)CO)C(=O)c2ccccc2-c2ccccc2CO[C@H]1CN(C)C(=O)[C@@H]1CCCN1C	-3.4	1	1	1.7
COc1ccc2c3c([nH]c2c1)[C@@H](CO)N(Cc1ccccc1OC)CC31CN(C)C1	14	-1	2	0.8
CCCNC(=O)[C@H]1[C@H](CO)[C@H]2Cn3c(ccc(-c4cccc(F)c4)c3=O)[C@@H]1N2C(=O)c1ccccn1	-0.2	-1	1	-0.2
CCNC(=O)[C@@H]1[C@@H](CO)[C@@H]2Cn3c(ccc(-c4ccc(F)cc4)c3=O)[C@@H]2N1C	-1.0	1	10	-3.5
N#C[C@H]1N[C@H](CO)[C@H]1c1ccc(C#Cc2ccccc2F)cc1	-2.9	-3	-12	-1.3
C/C=C/c1ccc([C@@H]2[C@H]3CN(C(=O)Nc4cccc(OC)c4)CC(=O)N3[C@H]2CO)cc1	3.1	-5	-8	2.2
CN1C(=O)c2cc(NC(=O)c3ccc(F)cc3)ccc2OC[C@H]2O[C@@H](CC(=O)NCC3CCCCC3)CC[C@H]21	-0.1	-5	-30	3.1
C[C@@H]1CN([C@@H](C)CO)C(=O)c2cccc(N(C)C)c2O[C@@H]1CN(C)S(=O)(=O)c1ccc(F)cc1	-1.0	-2	0	-1.2
Cc1ccc(-c2cnc(C(O)c3cc(Cl)cc(Cl)c3)[nH]2)cc1 (configuration not stated)	4.8	-55	-77	-18

Further structures
Structure	AF4-AF9 inh	rRNA inh HTS	rRNA inh HTS OD600	rRNA inh HTS RFP
Cc1noc(C)c1NC(=O)Nc1ccc2c(c1)C(=O)N([C@H](C)CO)C[C@H](C)[C@@H](CN(C)C(=O)NC(C)C)OCCCC[C@H](C)O2	-2.5	3	3	-3.0
COc1ccccc1NC(=O)N(C)C[C@H]1Oc2ncc(C#CC(C)C)cc2C(=O)N([C@H](C)CO)C[C@H]1C	-2.5	2	-5	-2.3
COCC(=O)N(C)C[C@H]1Oc2cc(-c3ccc(C)cc3)ccc2S(=O)(=O)N([C@H](C)CO)C[C@@H]1C	-1.5	-8	-3	0.0
C[C@H]1CN([C@@H](C)CO)C(=O)c2cc(NC(=O)C3CC3)ccc2O[C@H]1CN(C)C(=O)NC1CCCCC1	-2.7	0	4	-1.8
Cc1ccc(S(=O)(=O)Nc2ccc3c(c2)C(=O)N([C@@H](C)CO)C[C@H](C)[C@@H](CN(C)Cc2ccc(C(=O)O)cc2)O3)cc1	-1.0	3	6	1.7
COc1ccccc1-c1ccccc1[C@@H]1[C@@H](C#N)N(C(=O)C2CC2)[C@H]1CO	-2.1	3	3	-2.8
NCc1csc(Nc2ccc(C(=O)c3ccccc3)cc2)n1	12	-4	-11	6.9
C[C@H]1CN([C@@H](C)CO)S(=O)(=O)c2ccc(C3=CCCCC3)cc2O[C@@H]1CN(C)S(=O)(=O)c1ccc(F)cc1	-5.1	-3	5	-3.5
Cc1noc(C)c1S(=O)(=O)Nc1ccc2c(c1)C(=O)N([C@H](C)CO)C[C@@H](C)[C@@H](CN(C)S(=O)(=O)c1ccccc1)O2	0.0	-4	-7	-0.9
CCC(=O)N1[C@@H](CO)[C@H](c2ccccc2)C12CN(C(=O)c1ccc(F)cc1)C2	-1.4	1	-4	-1.0
CC(C)C#Cc1ccc([C@@H]2[C@@H](C#N)N(C(=O)C3CCOCC3)[C@H]2CO)cc1	2.1	4	4	-0.7
CC(C)CC#Cc1cnc2c(c1)C(=O)N([C@H](C)CO)C[C@H](C)[C@@H](CN(C)C(=O)c1ccc(F)cc1)O2	2.0	-4	-3	6.6

Three entries from above, sorted by molecular weight, high to low:
Structure	AF4-AF9 inh	rRNA inh HTS	rRNA inh HTS OD600	rRNA inh HTS RFP
C[C@@H]1CN([C@@H](C)CO)C(=O)c2ccccc2-c2ccccc2CO[C@H]1CN(C)C(=O)[C@@H]1CCCN1C	-3.4	1	1	1.7
COCC(=O)N(C)C[C@H]1Oc2cc(-c3ccc(C)cc3)ccc2S(=O)(=O)N([C@H](C)CO)C[C@@H]1C	-1.5	-8	-3	0.0
O=C1CN(S(=O)(=O)c2cccc(F)c2)C[C@@H]2[C@@H](c3ccc(-c4ccc(F)cc4)cc3)[C@@H](CO)N12	-2.2	2	5	4.2

(list continues)
Structure	AF4-AF9 inh	rRNA inh HTS	rRNA inh HTS OD600	rRNA inh HTS RFP
C=CCCC(=O)N1C[C@H]2CCN(C)[C@H]2C[C@H]1c1ccc(Br)cc1	-3.3	12	14	0.7
COc1ccc(N2CCN(C(=O)C3CCN(S(=O)(=O)c4ccc5c(c4)CC(C)N5C(=O)C4CC4)CC3)CC2)cc1 (configuration not stated)	-2.4	-47	-68	-12
C[C@H](CO)N1C[C@H](C)[C@H](CN(C)C(=O)CC2CC2)Oc2ncc(C#C[C@@H](C)O)cc2C1=O	-0.6	0	3	-1.9
COc1ccc(S(=O)(=O)Nc2ccc3c(c2)C(=O)N([C@H](C)CO)C[C@@H](C)[C@H](CN(C)Cc2ccc(C(F)(F)F)cc2)OCCCC[C@H](C)O3)cc1	3.2	-4	-29	13
Cc1ccc(S(=O)(=O)N(C)C[C@@H]2Oc3ccc(NC(=O)CCCCCC(=O)Nc4ccccc4N)cc3C(=O)N([C@H](C)CO)C[C@H]2C)cc1	1.8	-7	-1	0.3
COc1ccc(CN(C)C[C@@H]2Oc3ccc(NS(=O)(=O)c4c(C)noc4C)cc3C(=O)N([C@H](C)CO)C[C@H]2C)cc1	0.4	3	13	-5.4
C[C@@H]1CN([C@@H](C)CO)C(=O)c2cc(NC(=O)Cc3cn(C)c4ccccc34)ccc2O[C@@H]1CN(C)C	-13	6	7	-2.0
CO[C@@H]1CN(C)C(=O)c2ccc(NC(=O)Nc3cc(F)ccc3F)cc2OC[C@H](C)N(C)C[C@@H]1C	-1.0	1	-4	-0.6
C[C@H]1CN([C@@H](C)CO)S(=O)(=O)c2ccc(C#CC(C)(C)O)cc2O[C@@H]1CN(C)C(=O)CN(C)C	-2.1	5	16	1.9
C[C@H]1CN([C@@H](C)CO)C(=O)c2cc(C#Cc3ccc(F)cc3)cnc2O[C@H]1CN(C)CC1CCOCC1	2.4	1	9	-1.5
N#C[C@H]1[C@@H](c2ccccc2)[C@H](CO)N1S(=O)(=O)c1ccc(-c2ccccc2)cc1	-2.3	-35	-64	0.9
CC(C)C(=O)Nc1ccc2c(c1)C(=O)N(C)[C@@H]1CC[C@@H](CC(=O)NC3CCCC3)O[C@@H]1CO2	1.8	3	1	-0.1
O=C(c1ccccn1)N1CC(=O)N2[C@H](CO)[C@@H](c3ccc(C#Cc4ccccc4)cc3)[C@@H]2C1	-0.1	3	-35	0.1
COc1ccc(NC(=O)Nc2ccc3c(c2)CC(=O)N([C@@H](C)CO)C[C@H](C)[C@@H](CN(C)S(=O)(=O)c2ccc(Cl)cc2)O3)cc1	-0.2	1	3	2.0

2 records picked at random from those above, as already listed:
Structure	AF4-AF9 inh	rRNA inh HTS	rRNA inh HTS OD600	rRNA inh HTS RFP
Cc1ccc(S(=O)(=O)N(C)C[C@@H]2Oc3ccc(NC(=O)CCCCCC(=O)Nc4ccccc4N)cc3C(=O)N([C@H](C)CO)C[C@H]2C)cc1	1.8	-7	-1	0.3
CC(C)C(=O)Nc1ccc2c(c1)C(=O)N(C)[C@@H]1CC[C@@H](CC(=O)NC3CCCC3)O[C@@H]1CO2	1.8	3	1	-0.1
